# VACV mCherry inh = inhibitors of vaccinia virus infection (mCherry reporter signal) | Vaccinia virus mCherry reporter infection, fluorescence; about a quarter of the inactives have no number | Potency, µM (series often up to 36.5 µM), without a hit: at the top dose activity change, negative = inhibition, actives largely listed as inhibitors | 0.63% of 310,000 active | AID 720579; active = well fitted inhibition curve with a large enough effect; inconclusive = small, poorly fitted or top-dose-only effect; inactive = no such curve, though single readings can be large or run the other way; tested in A549 cells; also: nearly all actives have a fitted effect of over 35% in size; inactives centre near -10
# VACV Venus inh = inhibitors of vaccinia virus (Venus reporter) | Vaccinia virus Venus reporter expression, fluorescence | Potency, µM (top dose mostly 36.5 µM), for the others: at the highest dose activity change, negative = inhibition, actives largely listed as inhibitors | 0.46% of 330,000 active | AID 720580; active means well fitted inhibition curve with a large enough effect; inconclusive means small, poorly fitted or top-dose-only effect; inactive means no such curve, though single readings can be large or run the other way; tested in A549 cells; also: nearly all actives have a fitted effect of over 30% in size; inactives centre near -10
# Starred values were filed as active, the others as inactive; i = inactive; ? = inconclusive; nt = not tested or not shown; & = joins results of further samples; [ ] = remark or other dose. % is scaled to controls: 0 for no effect and ±100 for the full control effect; potency is read from the fitted curve at half-maximal effect. No enrichment for hits. Share with any hit: about 0.87%.
SMILES,VACV mCherry inh,VACV Venus inh
COC(=O)CCC(=O)N1CCCC(N2CCN(c3cccc(C(F)(F)F)c3)CC2)C1 (centres undefined),-7%,-15%
O=C(Nc1ccnn1C1CCN(C2CCC2)CC1)c1ccccc1,-2%,-12%
CCN(CC)C(=O)CSc1nnc(-c2ccccn2)n1-c1ccccc1OC,-1%[7.34 µM],-12%[7.34 µM]
CCOC(=O)c1c(N)n(Cc2ccccc2)c2nc3ccccc3nc12,-8%,1%
COc1ccc(CCNC(=O)c2ccc(Cn3c(=O)c4ccccc4n(CC(=O)C(C)(C)C)c3=O)cc2)cc1OC,-11%,-4%
CCOC(=O)CSc1nc(-c2ccccc2)nc2ccc(C)cc12,i,-13%
CCOc1ccc(OCCC(=O)OCC(=O)c2c(N)n(CC(C)C)c(=O)n(C)c2=O)cc1,-5%,-5%
C=CCNc1nc(Cl)nc(Nc2ccc(OCC)cc2)n1,-1%,-5%
CSCc1c(C(=O)Nc2ccc(N3CCOCC3)cc2)oc2ccccc12,-7%,-6%
Cc1nn(Cc2ccccc2)c(C)c1NC(=O)CSc1nc2c(c(C(F)(F)F)n1)CCc1ccccc1-2,-17%,7%

# (further entries)
SMILES,VACV mCherry inh,VACV Venus inh
COc1ccc(NC(=O)Nc2ccc3c(c2)CC(=O)N([C@H](C)CO)C[C@@H](C)[C@H](CN(C)C(=O)Nc2ccccc2)O3)cc1,-29%,-18%
Cc1ccc(CCNC(=O)C2CCN(S(=O)(=O)N3CCCCC3)CC2)cc1,i[7.34 µM],0%[7.34 µM]
COc1ccc([C@@H]2[C@@H]3C(=O)N(C(C)(C)C)C(=O)[C@@H]3[C@]3(Cc4ccccc4)C(=O)N(c4cccc(F)c4)C(=O)N23)cc1,i,-11%
COC(=O)N1CCN(CCc2ccccc2)CC1,-6%,-7%
O=C(COc1ccc(Cl)cc1)N1CCN(Cc2ccc3c(c2)OCO3)CC1,?,-10%&0%&-4%
C/C(=N/NC(=O)c1ccc(Cl)s1)c1cccnc1,?,-6%
CCCC(C)(C)C(=O)N1CCC1(C)C(=O)NS(=O)(=O)c1ccc(Cl)cc1 (centres undefined),i,-6%
Cc1coc2cc3oc(=O)c(CCC(=O)NCCN4CCOCC4)c(C)c3cc12,2%,1%
CCN1CCN(c2ccc(S(=O)(=O)N3CCCCC3)cc2NC(=O)CC(NC(C)=O)c2ccccc2)CC1 (centres undefined),i,-13%
Cc1ccc(Cl)cc1-c1cc(C(=O)N2CCN(c3ccncc3)CC2)[nH]n1,i,-18%

# New compounds follow:
SMILES,VACV mCherry inh,VACV Venus inh
NCC1(c2ccc3c(c2)OCCO3)CCCC1,i,-16%
CCC(=O)Nc1ccc(C(=O)CSc2nnc(CNc3ccc(Cl)cc3)o2)cc1OC,-15%,-25%
COc1ccc(CNC(=O)c2ccc(Cn3cc(Cl)cn3)o2)cc1,-14%,14%
CCc1ccc(OCC(=O)N/N=C(\C)c2ccc(-n3ccnc3)cc2)cc1,-3%,-8%
CCOc1ncccc1C(=O)NCc1ccccc1F,-6%,-14%
O=C(NCCCN1CCOCC1)c1ccc(S(=O)(=O)N2CCOCC2)cc1,-13%,-10%
CCCn1c(C(C)NC(=O)c2ccccc2)n[nH]c1=S (centres undefined),i,1%
C=CC(=O)NC(C)(C)Cc1ccccc1,2%,-6%
Cc1ccccc1-c1cc2nc(OCC3CCCO3)n(C)c(=O)c2s1 (centres undefined),-5%,-8%
Cc1ccc(CNS(=O)(=O)c2c(C(=O)N3CCCCCC3)c(C)n(C)c2C)cc1,-4%,-3%

# (list continues)
SMILES,VACV mCherry inh,VACV Venus inh
COc1ccc(N(Cc2nnc3n2CCCCC3)C(=O)Nc2ccccc2)cc1,i,-20%
COc1ccc(NC(=O)CCC(=O)N(Cc2ccc(OC)c(OC)c2)c2nccs2)cc1,-1%,-12%
CCCCn1c(NC(=O)c2ccco2)c(S(=O)(=O)c2ccc(C)cc2)c2nc3ccccc3nc21,-8%,18%
O=C(CCN1C(=O)/C(=C/c2ccc3c(c2)OCO3)SC1=S)Nc1ccc(C(=O)O)cc1,-1%,15%
COc1cccc(C(=O)NCC(c2ccc(N(C)C)cc2)N2CCc3ccccc32)c1 (centres undefined),-5%,0%
Cc1ccc(C(C)C)cc1OCC(=O)NC1CCCCCCC1,i,-4%
CC(=O)Nc1cc(NC(C)=O)cc(C(=O)OCC(=O)c2ccc3c(c2)NC(=O)CO3)c1,-19%,-5%
CC(=O)c1cccc(NC(=O)COC(=O)CCc2ccc(S(=O)(=O)N3CCOCC3)cc2)c1,-6%,-5%
OCC[C@H]1C[C@@H](O)[C@H](O)[C@@]2(CCCO2)O1,i,-11%
COc1ccc(CCNC(=O)COc2ccc(-c3ccc(C)cc3)cc2)cc1OC,-7%,-14%

# (listing goes on)
SMILES,VACV mCherry inh,VACV Venus inh
CCc1ccccc1NC(=O)Nc1cccs1,?,-22%
COc1ccc(Cc2nc3ccccc3n2CC(=O)N/N=C/c2ccc(O)cc2)cc1OC,-19%,1%
CCOc1cccc(C(=O)Nc2cccc(NC(=O)c3ccco3)c2)c1,i,-13%
Cc1ccnc(N2C(=O)c3ccccc3C2Nc2ccc3c(c2)OCCO3)c1 (centres undefined),-14%,-1%
CCOC(=O)c1c(C)[nH]c(O)c1C=Nc1ccccc1,-28%,?
COc1ccc2c(COC(=O)CCS(=O)(=O)c3ccc(C)cc3)cc(=O)oc2c1,-26%,-9%
O=C(CCC1N=C2c3ccccc3N=C(SCC(=O)NCCc3ccccc3)N2C1=O)NCc1ccc(F)cc1 (centres undefined),-15%,0%
Cc1ccc(/C=N/NC(=O)Cc2cccs2)o1,-10%,-9%
O=C(c1cc(-c2ccncc2)nc2ccccc12)N1CCOCC1,-10%,-5%
Cc1cc(=O)oc2cc(OC(C)C(=O)N3CCCc4ccccc43)ccc12 (centres undefined),nt,-20%

# (further entries)
SMILES,VACV mCherry inh,VACV Venus inh
O=C(CCC1CCCC1)Nc1ccccc1-c1ccccc1,-1%,-14%
CCSc1nnc(NC(=O)CSc2nc(C)cc(C)n2)s1,nt,-5%
CC(C(=O)NC(=O)NC1CCCCC1)N1CCN(c2ccccn2)CC1 (centres undefined),-15%,?
Cc1ccnc(NC(=O)c2ccc(NC(=O)CC3SC(N4CCCC4)=NC3=O)cc2)c1 (centres undefined),-20%,-11%
COc1ccc(OCCOC(=O)CNC(=O)c2cccc(C)c2)cc1,-15%,-7%
Cc1ccc2nc(-c3ccccn3)cc(C(=O)N3CCN(c4ncccn4)CC3)c2c1,nt,-18%
c1ccc(Cc2noc(CN3CCCN(C4Cc5ccccc5C4)CC3)n2)cc1,-11%,-12%
CCOC(=O)c1cc2oc(C)cc2n1CC(=O)OC1CCCCC1,-1%,-17%
O=C(COC(=O)c1cnccn1)Nc1cc(S(=O)(=O)N2CCOCC2)ccc1Cl,i,-10%
CCOC(=O)Cn1nc(NC(=O)c2ccc3c(c2)OCO3)cc1C,i,1%

# Additional entries follow.
SMILES,VACV mCherry inh,VACV Venus inh
O=C(COC(=O)/C=C/C(=O)N1CCN(c2ccccc2)CC1)NCc1ccc(F)cc1,1%,-6%
CCC(C)Sc1nnc(CNC(=O)C23CC4CC(CC(C4)C2)C3)n1C1CCCCC1 (centres undefined),-15%,-16%
CC(=O)Nc1cccc(N/C=C(\C=O)c2nc3ccccc3o2)c1,-3%,0%
CC1(C)CC(=O)C=C(NCCc2c[nH]c3ccccc23)C1,i[7.34 µM],-2%[7.34 µM]
O=C(CSc1nnc(CCc2ccccc2)n1-c1ccc(Cl)cc1)NCc1ccccc1,-12%,?
CC(C)Cc1nnc(NC(=O)CCC(=O)Nc2ccccc2)s1,-19%,-7%
O=C(NC(=S)NNC(=O)c1ccccc1O)c1ccc([N+](=O)[O-])cc1,-9%,-10%
Cc1nc2nc(C)c(CCC(=O)O)c(C)n2n1,-11%,-5%
O=C(CCC1CCCN(Cc2ccc(O)c(Cl)c2)C1)NCc1ccccc1F (centres undefined),-17%,-5%
O=C(CSc1cn[nH]n1)Nc1ccccc1F,-13%,-13%

# New compounds follow:
SMILES,VACV mCherry inh,VACV Venus inh
CC1Sc2ccc(C(=O)N(CCc3ccccc3)Cc3ccccc3)cc2NC1=O (centres undefined),i,?
COc1ccc(C(=O)Nc2ccc(N3CCOCC3)cc2)cc1OC,-3%,5%
Cc1nc(SCC(=O)Nc2ccc(C(=O)O)cc2)n[nH]1,-3%,7%
COC(=O)C1=CN(CCCN2CCCC2=O)C=C(C(=O)OC)C1c1ccccc1C(F)(F)F,nt,-13%
O=C(NC(Cc1ccc2c(c1)OCO2)C(=O)N1CCCC1C(=O)O)c1ccccc1 (centres undefined),-14%,-18%
COC(=O)C1=C(c2ccc(F)cc2OCc2ccccc2)C[C@@H]2CC[C@H]1N2C(=O)NC1CCN(Cc2ccccc2)CC1,-1%,?
Oc1ccc(Cl)c(Cl)c1Cl,i,-7%
Cc1ccc2c(CNCc3ccccc3)cc(=O)oc2c1,?,-24%
Cc1c(Cc2ccccc2)c(=O)oc2c(C)c(OCC(=O)N[C@@H](Cc3ccccc3)C(=O)O)ccc12,-4%,3%
CCOC(=O)CNC(=O)Cn1cnc2sc(C)c(S(=O)(=O)N3CCOCC3)c2c1=O,-8%,0%

# Following part.
SMILES,VACV mCherry inh,VACV Venus inh
O=C(Nc1cc(Cl)ccc1Oc1ccccc1)c1cnccn1,nt,-6%
CC(C(=O)O)N1C(=O)c2cccc3cccc1c23 (centres undefined),nt,-14%
CSc1nc(C)cc(NC(N)=O)n1,-5%,19%
CC1(C)S[C@@H]2C(C(=O)O)NC(=O)N2C1C(=O)O (some centres undefined),i,-21%
COC(=O)c1c(C(=O)OC)c2c(-c3ccccc3)cc3cccc1n32,-11%,-24%
CC(C)C(=O)Nc1ccc(NC(=O)c2ccc(COc3ccccc3)cc2)cc1,i,7%
CCOC(=O)C1=C(O)/C(=C\c2cc(C)n(-c3ccccc3F)c2C)N=C1C,-5%,2%
Cc1cc(F)ccc1C(O)c1ncc(-c2cccc(F)c2)[nH]1 (centres undefined),i,-9%
COc1cccc(N2CCN(C3C4CC5CC(C4)CC3C5)CC2)c1 (centres undefined),nt,-8%
CCOc1ccc([C@@H]2CC=C(C(=O)O)CN2S(=O)(=O)c2ccc(C)cc2)cc1,i,-6%

# Arranged by number of heavy atoms (smallest number first): some entries from above
SMILES,VACV mCherry inh,VACV Venus inh
CC1(C)S[C@@H]2C(C(=O)O)NC(=O)N2C1C(=O)O (some centres undefined),i,-21%
CC(C(=O)O)N1C(=O)c2cccc3cccc1c23 (centres undefined),nt,-14%
O=C(Nc1cc(Cl)ccc1Oc1ccccc1)c1cnccn1,nt,-6%
CCOc1ccc([C@@H]2CC=C(C(=O)O)CN2S(=O)(=O)c2ccc(C)cc2)cc1,i,-6%
CC(C)C(=O)Nc1ccc(NC(=O)c2ccc(COc3ccccc3)cc2)cc1,i,7%

# Structures listed so far that contain two or more sulfur atoms (3):
SMILES,VACV mCherry inh,VACV Venus inh
O=C(CCN1C(=O)/C(=C/c2ccc3c(c2)OCO3)SC1=S)Nc1ccc(C(=O)O)cc1,-1%,15%
CCSc1nnc(NC(=O)CSc2nc(C)cc(C)n2)s1,nt,-5%
CCOC(=O)CNC(=O)Cn1cnc2sc(C)c(S(=O)(=O)N3CCOCC3)c2c1=O,-8%,0%

# More entries.
SMILES,VACV mCherry inh,VACV Venus inh
CCOC(=O)C1C(C(=O)OC)=C(c2ccc(OC)cc2)c2ccccc2N1S(=O)(=O)C(F)(F)F (centres undefined),i,-17%
CCOc1cc(C(=O)Nc2cccc(-c3nc4ccccc4o3)c2)cc(OCC)c1OCC,-7%,-6%
COC(=O)C1=C(C(=O)OC)[C@@H]2N(C)c3ccc(OC)cc3[C@@]23C[C@@H](C(=O)OC)N(C(=O)c2ccco2)C3=N1,-16%,?
COc1ccc(C(=O)OCc2ccccc2C#N)cc1S(=O)(=O)N1CCOCC1,i,-6%
COc1cc(OC)cc(-c2cc3nc(C)c(CCC(=O)Nc4ccccc4OC)c(C)n3n2)c1,-9%,-6%
CCCSCC(=O)Nc1ncc2c(n1)-c1ccccc1CC2,i,-6%
N#CC(C#N)=C1CCCc2sccc21,-9%,-12%
CCc1ccccc1NC(=O)NCCN1CCCCC1,-18%,1%
COc1cc(OC)cc(-c2nc(-c3ccc(Br)cc3)no2)c1,-12%,3%
CCC(C)NCCCOc1ccc(C)cc1OC (centres undefined),-9%,-1%

# (further entries)
SMILES,VACV mCherry inh,VACV Venus inh
Cc1ccc(C)c(OCCC(=O)OCC(=O)NC2CCS(=O)(=O)C2)c1 (centres undefined),i,-9%
CCCn1c2ccccc2c2cnn(CC(=O)NCCCN(CC)c3ccccc3)c(=O)c21,0%,-12%
CNC(=S)N(CCc1c(C)[nH]c2ccc(C)cc12)Cc1ccc(OC)c(OC)c1,?,-19%
O=C(O)c1ccccc1C(=O)NNc1ccc(F)cc1,0%,-14%
COc1ccc(N2Cc3cccc(C(=O)NC(C)CCc4ccco4)c3C2=O)cc1 (centres undefined),-2%,6%
CC(=O)N1C2=CCCC3CCCCC23c2ccccc21 (centres undefined),i,-14%
CCC(/C=N/NC(=O)c1ccccc1F)CC,i,-3%
